Compound activity as filed in PubChem.
RN4220 kill = growth inhibition of S. aureus RN4220, primary screen, OD600 | 16 h | inhibition, % (concentration not given with the values) | actives 0.33% (n = 330,000) | AID 1259311, 2017;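 active means z-score of -3 or lower and OD600 up to 0.18 on both plates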;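 further: plate controls were untreated cells for no effect and reference antibiotic for full effect; stock transfer was 100 nL into about 80 µL; one replicate is shown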
Autofluor counter = compound fluorescence in toxin protease inhibitor counterscreen; compound autofluorescence counterscreen, microsphere flow cytometry; active compounds read high; fluorescence intensity (concentration not given with the values); actives 3.1% (n = 360,000); AID 624483;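 active means at least 3 SD above the mean of all compounds, about 16000 in these data; inconclusive means too few beads counted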;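 further: 100 nL of 1 mM stock went into each well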
PrP 5UTR inh = inhibition of PrP 5' UTR reporter expression; cell-based PrP 5' UTR mRNA reporter, plate reader; inhibition, % (concentration not given with the values); actives 0.35% (n = 340,000);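 active means every replicate at 50% or more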;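 further: 0 = median of the neutral control wells; tested in H4 reporter cells; numbers are from one replicate; inactives centre near -14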
ugtP null kill = growth inhibition of ugtP-null S. aureus, primary screen, RN4220 ugtP deletion, OD600; 16 h; some inactives read as strong as hits; growth inhibition, % (concentration not given with the values); actives 0.54% (n = 330,000); AID 1259309, 2017;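 active means z-score under -3 and OD600 up to 0.15 on both plates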;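 further: plate controls were untreated wells for no effect and antibiotic for full effect; wells of about 80 µL received 100 nL stock; the first replicate is given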
Mtb hypoxia inh = PubChem AID 1159583 | actives 0.1% (n = 300,000) | M. tuberculosis hypoxia-regulated fluorescent reporter, fluorescence | fluorescence inhibition, % (concentration not given with the values);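 active means 35 to 45% if threefold the growth effect, above 45% if 1.5-fold the growth effect; inactive means the rest, general growth blockers included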;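 further: wells of about 50 µL received 100 nL stock; 0% = vehicle wells and 100% = reference inhibitor wells; whole bacteria with a GFP reporter of the hypoxia response; strong numbers were not always called active; many hits fall short of the cut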
BJeLR lethal = MLPCN primary cell-based screen for lethality selective to Ras in HRASV12 cells | inhibition, % (no concentration beside the values) | AID 1554, 2009 | BJeLR (HRASV12) viability, CellTiter-Glo ATP luminescence, 48 h; reference of the scale not given here | actives 0.17% (n = 300,000);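 active means replicate mean above 50%; inconclusive means above 50% but judged a plate artefact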;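 further: 50 nL library stock added to about 25 µL; numbers are from one replicate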
Mtb hypoxia inh growth = further read-out of Mtb hypoxia inh, marked with its call; growth inhibition, %; measured here: M. tuberculosis growth (absorbance);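 0% = vehicle and 100% = reference antibiotic; read after six days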
An asterisk follows results filed as active; ? = inconclusive; . = no result given; & = joins results of further samples.

SMILES	RN4220 kill	Autofluor counter	PrP 5UTR inh	ugtP null kill	Mtb hypoxia inh	Mtb hypoxia inh growth	BJeLR lethal
N#CCCN(C(=O)COC(=O)c1ccc(S(=O)(=O)N2CCCC2)cc1)c1cccc(Cl)c1	1.6	3771	-23	4	7	2	.
Cc1ccc(C)c(NC(=O)CN(C)C(=O)c2ccccc2OCc2ccc(Cl)cc2)c1	4.0	5931	-11	4	-3	0	1
CC/C(=N\Nc1cccc2ccccc12)c1c(O)[nH]c(=O)[nH]c1=O	.	2432	-18	.	.	.	-12
CC(NCCC(Cc1ccccc1)c1ccco1)c1ccccc1 (configuration not stated)	-1.3	4881	1	-8	0	19	-7
COc1ccc(C(C(=O)NC2CCCC2)N(C(=O)c2ccco2)c2cccc(C(C)=O)c2)cc1OC (configuration not stated)	3.5	3129	-10	-2	2	-8	-2
O=C1CC(Nc2ccc(N3CCOCC3)cc2)C(=O)N1CCc1ccccc1 (configuration not stated)	0.2	4525	-17	6	1	1	-1
Cc1cc(C)n(CC(=O)N2c3ccccc3Sc3ccc(C(F)(F)F)cc32)n1	2.2	2143	-18	-3	3	2	-6
Cc1cccc(C)c1NC(=O)/C(=C/c1ccco1)c1ccccc1	5.9	4343	-12	-5	.	.	3
COc1cc(NC(=S)NC(=O)c2c(OC)cccc2OC)ccc1NC(=O)c1cccs1	6.0	3350	-9	-17	2	2	23
NC(=O)CC(NC(=O)Cc1ccc(Br)cc1)c1ccc(NCc2cc(F)ccc2F)c([N+](=O)[O-])c1 (configuration not stated)	3.7	3529	29	-21	7	6	-11
Cc1cccc(Nc2nc(N)nc(CSc3nccc(C)n3)n2)c1	7.1	4340	-8	-15	1	7	0
Cc1ccc(CN2CCN(/N=C/c3ccc(Cl)c([N+](=O)[O-])c3)CC2)cc1	.	4128	-19	.	.	.	-1
Cc1cc(NC(=O)CCC(=O)N(Cc2cccnc2)C(C(=O)NC(C)(C)C)c2ccccc2Cl)no1 (configuration not stated)	2.6	3859	-17	-1	4	-5	7
COc1ccc(-c2ccc(/C=C3\C(=O)N(c4ccccc4)N=C3c3ccccc3)o2)c([N+](=O)[O-])c1	-7.2	3606	-24	2	.	.	2
COC(=O)c1oc(-c2ccc(Cl)cc2)nc1C	8.7	4541	-41	1	8	3	0
O=C(c1ccc(COc2ccccc2Br)o1)N1CCCCCC1	12	5289	-49	-5	3	8	-1
CCN(CC(=O)Nc1ccccc1OC)C(=O)COc1ccc(C#N)cc1	7.1	4482	-7	15	-4	5	.
O=C(CSc1nc(-c2ccccc2)cs1)N1CCc2ccccc21	-1.4	9972	-22	2	-2	2	-20
O=C(CNc1ccc(Cl)cc1)NNC(=S)NCc1ccccc1	1.9	4180	-10	-7	-4	-2	6
CSc1ncccc1C(=O)N1CCCC(CCC(=O)NCc2ccc(F)c(F)c2)C1 (configuration not stated)	.	3772	-19	.	.	.	0
O=C(NC1CCCCC1)c1cc(-c2ccc(O)cc2)on1	6.9	5233	-68	-4	0	1	2
CC1CCCCC1N=C1NC(C)(C)CS1 (configuration not stated)	3.2	4355	-26	7	-27	-12	.
CCOc1cc(N2CCOCC2)c(OCC)cc1NC(=O)c1cc(S(=O)(=O)N2CCOCC2)ccc1Cl	3.6	?	-14	0	-18	-5	.
COC(=O)c1c(SCc2cccc3ccccc23)nc(=O)[nH]c1C	5.2	5400	-12	7	5	-3	1
CC(=O)C1CCCN(C(=O)c2ccc3oc(CCc4ccccc4)nc3c2)C1 (configuration not stated)	-3.7	5682	-21	-4	-7	-4	10
COCCn1cnc2c1c(=O)n(CC(=O)OCC(=O)NCC(F)(F)F)c(=O)n2Cc1ccccc1	6.4	2014	2	5	-10	-2	-2
C=CCn1c(=NC(=O)C2CC2)sc2cc(NC(C)=O)ccc21	5.3	6127	-16	7	8	2	-8
O=C(NCc1ccccc1Cl)C(=O)NCC1OCCN1S(=O)(=O)c1cccs1 (configuration not stated)	3.7	2709	-21	-7	3	6	1
COc1ccc(/C=N/n2c(=O)[nH]c3c([nH]c4ccc(Br)cc43)c2=O)cc1CN1CCOCC1	.	2903	-9	.	.	.	6
COc1ccc(C2C(C(=O)N3CCCC3)CC(=O)N2c2ccc(OC)cc2)cc1 (configuration not stated)	2.8	9668	-18	-3	3	2	-10
O=C(OCC(=O)c1c[nH]c2ccccc12)C1=COCCO1	0.1	3732	-78	-8	15	5	3
NC(=O)c1ccccc1NC(=O)CCn1c(=S)oc2ccccc21	4.0	3510	-22	14	-2	-3	-4
CS(=O)(=O)c1nc(-c2ccc(F)cc2)cc(C(F)(F)F)n1	16	2072	-5	21	-4	-1	-6
Cc1ccc(N2CC(C(=O)NCc3ccco3)CC2=O)cc1Cl (configuration not stated)	1.8	6353	-7	-2	2	4	-2
COc1ccc(Br)cc1CN(C)CC(=O)Nc1cc(Cl)ccc1Cl	1.6	2789	-18	10	-3	12	-10
CC1CN(S(=O)(=O)c2cccc(C(=O)Nc3cc(Cl)ccc3N3CCOCC3)c2)CC(C)O1 (configuration not stated)	-4.2	5310	-22	-13	-5	-6	.
O=C(COC(=O)Cc1ccccc1F)NCc1ccc(Cl)cc1	-1.0	3653	-5	1	-11	1	.
O=S1(=O)N=C(N(CCO)/N=C/c2ccccc2)c2ccccc21	.	4129	-4	.	.	.	0
O=c1ccn(Cc2ccccc2)c(=O)n1Cc1ccccc1	-6.9	4445	-23	4	.	.	-5
COc1ccc(CNC(=O)c2cccc(C)c2[N+](=O)[O-])cc1	4.5	2324	-9	8	5	6	9
Cc1cccnc1CCNC(=O)CCc1nnc(-c2ccccc2)o1	-1.0	2026	-6	7	-2	0	8
O=S(=O)(c1ccccc1OC(F)(F)F)N1CCN(c2ccnc3cc(Cl)ccc23)CC1	-10	4831	-21	4	-1	-2	19
O=c1c2ccccc2nc(/C=C/c2ccc(O)cc2)n1-c1ccccc1O	95*	4652	-20	91*	-1	5	5
O=C(Cn1c(=O)c(=O)n(Cc2ccccc2)c2ccc(Cl)cc21)Nc1ccc(F)cc1F	4.0	3210	-13	7	2	-5	-3
Cc1ccc(Cl)c(NC(=O)CSc2n[nH]c(=O)n2C2CC2)c1Cl	3.8	5606	-9	5	-12	2	.
CC(/C=C1\SC(=S)N(NC(=O)c2ccccc2C)C1=O)=C\c1ccccc1	13	2133	45	-4	15	3	0
Cc1ccccc1OCC(=O)OCC(=O)NCC1CCCO1 (configuration not stated)	4.4	4956	-16	4	15	1	-4
O=C(COc1ccc2ccccc2c1)NCCc1ccc2c(c1)OCCO2	.	2491	-18	.	.	.	-11
Cc1ccc(C)c(OC(=O)c2cccnc2Cl)c1C	4.9	5943	-15	9	4	10	-15
CCNc1nc(NCC)nc(N2CC(=O)N(CC(=O)OCC)C2=N)n1	12	3054	-26	4	-5	7	-5

Later entries.
SMILES	RN4220 kill	Autofluor counter	PrP 5UTR inh	ugtP null kill	Mtb hypoxia inh	Mtb hypoxia inh growth	BJeLR lethal
CN1CCN(NC(=O)c2c(-c3ccccc3)sc3ccccc23)CC1	3.7	3200	-5	3	14	3	.
COc1cccc(CN2CCN(C3CCOCC3)CC2CCO)c1 (configuration not stated)	-1.4	3239	-3	-9	5	0	-2
COc1cc(C(=O)ON=C2C(C)=CC(=O)C=C2C)cc(OC)c1OC	3.0	5573	-36	-4	-10	-3	7
O=C(COC(=O)c1ccco1)Nc1ccccc1[N+](=O)[O-]	3.8	3927	-20	17	9	6	19
O=C(COC(=O)[C@H](Cc1ccccc1)NC(=O)c1cccs1)NC1CC1	3.0	1984	-18	-2	6	1	-13
Cc1ccc(Cn2nnc3c(=O)n(CC(=O)NCc4ccco4)cnc32)cc1	1.6	6262	-28	5	6	4	0
CC(=O)NCc1nc2ccccc2n1Cc1ccccc1F	5.0	4590	-31	-4	1	2	-7
COc1ccc(/C=C2\Oc3cc(OCC(=O)N4CCC[C@H]4C(=O)O)ccc3C2=O)c(OC)c1	-0.3	5412	-9	1	.	.	-2
O=C1c2oc3ccccc3c(=O)c2C(c2ccccn2)N1Cc1ccccc1 (configuration not stated)	2.1	2839	-9	8	.	.	-10
COc1cccc(-c2nc(CS(=O)(=O)CC(=O)NCc3ccccc3OC)c(C)o2)c1	-8.9	5193	-9	-3	10	10	-7
Cc1cc(NC(=O)c2ccc(F)cc2F)n(-c2nc3ccccc3[nH]2)n1	-0.9	11736	-7	-10	4	2	17
O=C(CSc1ccc2nnc(-c3ccc(Cl)cc3)n2n1)N1CCCc2ccccc21	6.2	2503	-12	-12	-2	-1	3
O=C(O)/C=C\C(=O)Nc1ccc(N2CCN(c3ccc(F)cc3)CC2)cc1	1.8	2141	-14	1	11	7	3
CN(c1ccccc1)S(=O)(=O)c1ccc(Cl)c(C(=O)OCC(=O)c2c(N)n(C)c(=O)n(C)c2=O)c1	2.1	2850	4	-9	-12	-19	.
O=C(CSc1nc(O)cc(=O)n1-c1ccccc1)Nc1ccccn1	1.9	4252	3	1	-1	3	7
O=c1cccc2n1CC1CNCC2C1 (configuration not stated)	5.0&1.6	6007	-27	5&1	-3&3	-2&1	-3
[O-][n+]1onc2c3cc(-c4ccccc4)nnc3ccc21	3.3	2822	-16	9	.	.	-3
COc1cc(/C=C/C(=O)OCC(=O)Nc2ccc(NC(C)=O)cc2)cc(S(=O)(=O)N2CCc3ccccc32)c1OC	6.1	4069	-25	7	-14	-4	1
CCCCCCc1ccc(-c2ncc(N)cn2)cc1	5.1	9758	-52	100*	5	6	-8
CC(=O)c1ccc(NC(=O)c2cn(-c3ccccc3)nc2-c2ccncc2)cc1	-5.3	2352	8	-3	16	7	8

Molecules shown so far that have an aryl thioether with sulfur outside any ring:
SMILES	RN4220 kill	Autofluor counter	PrP 5UTR inh	ugtP null kill	Mtb hypoxia inh	Mtb hypoxia inh growth	BJeLR lethal
Cc1cccc(Nc2nc(N)nc(CSc3nccc(C)n3)n2)c1	7.1	4340	-8	-15	1	7	0
O=C(CSc1nc(-c2ccccc2)cs1)N1CCc2ccccc21	-1.4	9972	-22	2	-2	2	-20
CSc1ncccc1C(=O)N1CCCC(CCC(=O)NCc2ccc(F)c(F)c2)C1 (configuration not stated)	.	3772	-19	.	.	.	0
COC(=O)c1c(SCc2cccc3ccccc23)nc(=O)[nH]c1C	5.2	5400	-12	7	5	-3	1
Cc1ccc(Cl)c(NC(=O)CSc2n[nH]c(=O)n2C2CC2)c1Cl	3.8	5606	-9	5	-12	2	.
O=C(CSc1ccc2nnc(-c3ccc(Cl)cc3)n2n1)N1CCCc2ccccc21	6.2	2503	-12	-12	-2	-1	3
O=C(CSc1nc(O)cc(=O)n1-c1ccccc1)Nc1ccccn1	1.9	4252	3	1	-1	3	7

(cont.)
SMILES	RN4220 kill	Autofluor counter	PrP 5UTR inh	ugtP null kill	Mtb hypoxia inh	Mtb hypoxia inh growth	BJeLR lethal
CC(C)CC(=O)O/N=C1\C(=O)N(c2ccccc2)c2ccccc21	.	2745	-14	.	.	.	-7
O=C(COC(=O)c1cc[n+]([O-])cc1)NCc1ccccc1Cl	5.6	3565	-10	6	-4	7	0
COc1ccc(/C=N/NC(=O)c2[nH]c3ccc(Cl)cc3c2-c2ccccc2)c(C(=O)O)c1OC	.	3609	-18	.	.	.	0
COc1cccc(CNC(=O)CCCn2ccc3cc(S(=O)(=O)N4CCCC4)ccc32)c1	-1.6	5691	4	5	11	7	-4
COc1ccc(NC(C)=O)cc1NC(=O)CN1CCN(C(=O)c2ccco2)CC1	2.2	7968	.	-5	1	10	-4
CCOC(=O)c1ccc(Cn2c(-c3ccccc3)nnc2-c2ccccc2)o1	4.8	2437	-19	1	.	.	-5
CCOC(=O)c1cc(C)[nH]c1C	2.0	5639	0	10	14	6	-6
CC(Sc1nnc(COc2ccccc2)n1Cc1ccccc1)C(=O)O (configuration not stated)	1.6	4993	-17	4	5	-2	2
O=C(Nc1nnc(-c2ccccc2Cl)o1)c1nc2ccccc2s1	99*	4358	-1	100*	7	8	9
CCOC(=O)c1cc(C#N)c(SC)nc1-c1ccccc1	10	3559	-5	4	.	.	0
CC(C)CNC(=O)C1c2ccccc2Oc2ccccc21	3.0	4188	-16	13	10	10	1
O=C(COC(=O)c1ccccc1SCC(=O)N1CCCC1)Nc1ccccc1C(F)(F)F	-2.4	5803	0	-8	-2	11	5
CC(=O)Cc1cc(O)c2ccccc2c1OC(=O)c1ccccc1	28	2652	-20	-30	4	-10	-3
